NS1 function inh = qHTS Assay for Inhibitors of Influenza NS1 Protein Function | 270,000 compounds, 0.4% hits | S. cerevisiae slowed by influenza A NS1, growth recovery by OD600 | Potency, µM (titrated, usually from 46.1 µM), without a hit: at the highest dose activity, positive = more growth; active means well fitted rising curve with a large enough effect; inconclusive means small, poorly fitted or top-dose-only effect; inactive means no such curve, though single readings can be large or run the other way; note: nearly all actives have a fitted effect of over 50% in size
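In this qHTS, NS1 from influenza A is expressed in budding yeast, where it slows growth. Cells are switched from glucose to 2% galactose medium (pH 6.0, -URA), treated with compound, and growth recovery is read at OD600.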
Cruzain inh Det = qHTS Assay for Promiscuous and Specific Inhibitors of Cruzain (with detergent); Cruzipain (Trypanosoma cruzi), P25779; purified cruzain, Z-FR-AMC fluorescence, 0.01% Triton; Potency, µM, inactives show max response, negative = inhibition, hits mostly inhibitors; 200,000 compounds, 0.43% hits; AID 1478, 2009;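 note: plate controls were neutral wells for no effect and buffer without enzyme for full effect; nearly all actives have a fitted effect of over 40% in size; top concentration of the series not given in the record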
Target sequence (P25779 123-467 limits assumed): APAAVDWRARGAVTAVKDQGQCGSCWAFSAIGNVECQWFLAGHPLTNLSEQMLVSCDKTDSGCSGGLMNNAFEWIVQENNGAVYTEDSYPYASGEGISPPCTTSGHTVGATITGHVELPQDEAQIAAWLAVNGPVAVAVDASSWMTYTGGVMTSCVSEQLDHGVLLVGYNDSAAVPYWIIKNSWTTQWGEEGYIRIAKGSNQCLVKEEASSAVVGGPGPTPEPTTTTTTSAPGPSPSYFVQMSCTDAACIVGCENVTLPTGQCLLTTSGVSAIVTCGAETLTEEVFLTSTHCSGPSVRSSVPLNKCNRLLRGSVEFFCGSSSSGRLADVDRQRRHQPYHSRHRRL
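Read-out: AMC fluorescence (360 nm excitation, 450 nm emission), four reads over 2 min, first-to-third difference used. Conditions: cruzain 1.5 nM, Z-FR-AMC 2 uM, pH 5.5 acetate, 5 mM DTT, 0.01% Triton X-100.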
RE007 growth inh = qHTS Assay for Inhibitors of the HIV-1 protein Vpr. S. pombe RE007 Vpr strain, BacTiter-Glo ATP luminescence, 24 h; control for the full effect not named in the record. Potency, µM (highest dose often 92.2 µM), inactives show top-dose activity change, negative = less growth. 360,000 compounds, 0.21% hits. AID 651644, 2012; active = well fitted falling curve with a large enough effect; inconclusive = small, poorly fitted or top-dose-only effect; inactive = no such curve, though single readings can be large or run the other way;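 note: % is set by controls: 0 for no effect and ±100 for the full control effect; nearly all actives have a fitted effect of over 50% in size; the assay follows cell death caused by Vpr and the record does not say whether a fall means rescue or toxicity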
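Fission yeast strain RE007, carrying one chromosomally integrated HIV-1 vpr copy, was seeded at OD 0.01 in PMG+AL medium with 23 nL pinned compound. After 24 h at 30 °C and 99% humidity, viability was read by BacTiter-Glo luminescence.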
Cruzain inh noDet = qHTS Assay for Promiscuous and Specific Inhibitors of Cruzain (without detergent). Potency, µM, inactives show max response, negative = inhibition, hits mostly inhibitors. purified cruzain, Z-FR-AMC fluorescence, no detergent. Cruzipain (Trypanosoma cruzi), P25779. AID 1476, 2009. 200,000 compounds, 2.3% hits;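 note: plate controls were enzyme without inhibitor for no effect and buffer without enzyme for full effect; nearly all actives have a fitted effect of over 40% in size; top concentration of the series not given in the record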
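Detergent-free condition (0.00005% Triton X-100) in acetate buffer pH 5.5 with DTT. 1.5 nM enzyme and compound were pre-mixed 15 min, then 2 uM Z-FR-AMC substrate added; reaction progress from fluorescence change between first and third reads (60 s).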
LASV entry inh = qHTS for Inhibitors of binding or entry into cells for Lassa Virus | Lassa virus pseudotype entry inhibition, cell reporter; control for the full effect not named in the record | 300,000 compounds, 1.2% hits | AID 540256, 2011 | Potency, µM (doses to about 37.9 µM), for inactives: at the highest dose activity change, negative = inhibition, hits mostly inhibitors; active means well fitted inhibition curve with a large enough effect; inconclusive means small, poorly fitted or top-dose-only effect, or effect the other way; inactive means flat fitted curve, though single readings scatter; tested in HEK293 cells; note: % is set by controls: 0 for no effect and ±100 for the full control effect; nearly all actives have a fitted effect of over 50% in size; luciferase read-out
Marburg entry inh = qHTS for inhibitors of binding or entry into cells for Marburg Virus. Marburg virus pseudotyped entry inhibition, cell reporter; control for the full effect not named in the record; about a third of the inactives were read at about 46 µM. Potency, µM (top dose mostly 37.8 µM), for the others: top-dose activity change, negative = inhibition, usual class: inhibitors. 300,000 compounds, 1.8% hits. AID 540276, 2011; active = well fitted inhibition curve with a large enough effect; inconclusive = small, poorly fitted or top-dose-only effect, or effect the other way; inactive = flat fitted curve, though single readings scatter; tested in HEK293 cells; about a fifth of its hits are not listed in these tables; note: % is set by controls: 0 for no effect and ±100 for the full control effect; luciferase read-out
StopGo reporter = High Throughput Screening for Foot and Mouth Disease Virus Antivirals; human cells with a luciferase reporter of 2A StopGo recoding; control for the full effect not named in the record; Potency, µM (doses to about 57.9 µM), for inactives: top-dose signal change, negative = less light; 410,000 compounds, 1.2% hits; active = well fitted falling curve with a large enough effect; inconclusive = small, poorly fitted or top-dose-only effect; inactive = no such curve, though single readings can be large or run the other way; tested in HEK293T cells; note: % is set by controls: 0 for no effect and ±100 for the full control effect; nearly all actives have a fitted effect of over 45% in size; luciferase light after 4 h
SARS PLP yeast = qHTS of Yeast-based Assay for SARS-CoV PLP | S. cerevisiae expressing SARS-CoV PLpro, growth rescue; control for the full effect not named in the record | Potency, µM (series often up to 32.9 µM), inactives show at the top dose activity, positive = growth rescue | 330,000 compounds, 0.19% hits; active means well fitted rising curve with a large enough effect; inconclusive means small, poorly fitted or top-dose-only effect; inactive means no such curve, though single readings can be large or run the other way; note: 0% is about no effect; nearly all actives have a fitted effect of over 55% in size; growth read by luminescence after 48 h
Active calls of the source: *; ? = inconclusive; · = not tested or not shown; & = joins results of further samples; [ ] = dose if it differs, or a comment. Unless noted, calls come from the whole dose curve; as a rule, active = well fitted curve in the direction sought with a large enough effect; inconclusive = small, poorly fitted or top-dose-only effect, or another doubt; inactive = no such curve, though single readings can be large; an effect the other way counts as inactive or inconclusive. Potency is the fitted concentration of half-maximal effect. Outcome played no part in choosing rows; overall some 4.6% were active at least once.

| SMILES | NS1 function inh | Cruzain inh Det | RE007 growth inh | Cruzain inh noDet | LASV entry inh | Marburg entry inh | StopGo reporter | SARS PLP yeast |
| --- | --- | --- | --- | --- | --- | --- | --- | --- |
| Cc1cccc(N2CCN(C(=O)c3c4c(nc5ccccc35)C(=O)N(C3CCCCC3)C4)CC2)c1C | · | -2.8% | · | 1% | ? | · | 0% | · |
| COc1ccc(OCc2nn3c(-c4ccccn4)nnc3s2)cc1 | -81% | -4.5% | 9% | -1% | 0% | 26%[46.1 µM] | -5% | -1% |
| O=C(CSc1nc2ccccc2[nH]1)N/N=C/c1ccco1 | -10% | · | 5% | · | 26% | ? | 46%[activator] | 1% |
| COC(=O)C1=C(C(=O)OC)C2(OC1c1ccc(Br)cc1)C(=O)c1ccccc1C2=O (stereo not drawn) | 8% | -2.2% | 4% | 3% | -28% | -24% | -15% | 18% |
| CCCC(NCC(O)COc1ccc(-c2ccccc2)cc1)c1ccccc1 (stereo not drawn) | -3% | · | -9% | · | · | · | ? | -5% |
| O=C(CN1C(=O)NC2(CCCC2)C1=O)Nc1cc(Cl)ccc1N1CCCCC1 | -11% | · | 17% | · | 3% | ? | -1% | 1% |
| O=C(NCc1ccco1)c1c(F)cccc1Cl | 6% | -5.1% | 5% | 1% | ? | ? | -25% | -21% |
| CCCc1ccc(OCC(=O)Nc2ccc(Cl)cc2C(=O)c2ccccc2)cc1 | · | 0.5% | · | 6% | -1%[46.1 µM] | · | -4% | · |
| CCC1(CC)NC(=O)N(CC(=O)OC(C)C(=O)Nc2ccc(NC(C)=O)cc2)C1=O (stereo not drawn) | · | · | -8% | · | -2% | ? | -19% | -1% |
| COc1ccc(Sc2cnn(-c3ccccc3)c(=O)c2Cl)cc1 | -10% | 0.3% | 2% | -9% | ? | -1% | ? | 3% |
| COc1ccc(Cc2n[nH]c(=O)c3ccccc23)cc1OC | 6% | 1.9% | -5% | -2% | 1% | 3% | ? | 1% |
| O=C(Nc1cc(S(=O)(=O)N2CCCCC2)ccc1O)c1ccccc1NS(=O)(=O)c1ccc(F)cc1 | 11% | -15% | -3%&-2% | 28% | ? | -18%[46.1 µM] | ? | -9% |
| Cc1ccc(CN2CCN(Cc3cccc(C)n3)CC2CCO)cc1 (stereo not drawn) | -1% | · | -8% | · | 20% | 21%[46.1 µM] | -7% | -1% |
| CCCc1cc(=O)[nH]c(SCc2ccccc2)n1 | -10% | -5.9% | 9% | 8% | 18% | 25% | 6% | -4% |
| CCN(CC)C(=O)CSc1nc2cc3c(cc2c(=O)n1CCCC(=O)NCc1ccc(OC)cc1)OCO3 | · | 2.6% | 7% | -7% | ? | ? | -2%&-7% | 2% |
| COc1cccc(NC(=S)NNC(=O)c2ccccc2OC(F)F)c1 | -20% | 3.7% | -4% | -7% | 7% | ? | 25% | -16% |
| CN(C(=O)C1CCN(c2ncnc3c2nc2n3CCCCC2)CC1)C1CCCCC1 | -12% | · | 2% | · | · | · | -21% | -12% |
| COc1ccc(SCc2cc(=O)c3ccc(C)c(C)c3[nH]2)cc1 | · | 0.3% | · | -19% | ? | · | -8% | · |
| O=C(COC(=O)c1ccco1)Nc1ccc(Cl)cn1 | · | · | 3% | · | 2% | 2% | 4% | 20% |
| O=C(Nc1ccc(CN2CCOCC2)cc1)c1ccc(-c2ccc(Br)cc2)o1 | -4% | -19% | 11% | ? | ? | ? | ? | -2% |

Looked up above.
`O=C(Nc1cc(S(=O)(=O)N2CCCCC2)ccc1O)c1ccccc1NS(=O)(=O)c1ccc(F)cc1` in SARS PLP yeast is entered as -9%
`CN(C(=O)C1CCN(c2ncnc3c2nc2n3CCCCC2)CC1)C1CCCCC1` in RE007 growth inh is entered as 2%
`COc1cccc(NC(=S)NNC(=O)c2ccccc2OC(F)F)c1` in RE007 growth inh is entered as -4%
`Cc1cccc(N2CCN(C(=O)c3c4c(nc5ccccc35)C(=O)N(C3CCCCC3)C4)CC2)c1C` in StopGo reporter is entered as 0%

Further records:
| SMILES | NS1 function inh | Cruzain inh Det | RE007 growth inh | Cruzain inh noDet | LASV entry inh | Marburg entry inh | StopGo reporter | SARS PLP yeast |
| --- | --- | --- | --- | --- | --- | --- | --- | --- |
| O=C(Nc1c(-c2cccs2)nc2ccccn12)c1ccc2ccccc2c1 | 0% | -6.2% | · | -2% | -3% | ? | · | 2% |
| O=Cc1c(C(=O)O)n(Cc2ccccc2Cl)c2ccccc12 | · | · | 8% | · | 15%[46.1 µM] | -11%[46.1 µM] | -15% | -1% |
| COc1n[nH]c(C(=O)Nc2cc(Cl)ccc2Cl)c1[N+](=O)[O-] | -25% | · | -9% | · | -15% | ? | -1% | -1% |
| CCN(C1CCS(=O)(=O)C1)S(=O)(=O)c1ccc(Cl)s1 (stereo not drawn) | · | · | 8% | · | 6%[46.1 µM] | -5% | -15% | 3% |
| CCC(=O)Nc1ccc(Cl)c(NC(=O)c2cccnc2)c1 | 1% | 2.8% | -5% | 7% | 17% | 24% | · | 7% |
| O=C(COC(=O)CCc1ccc(S(=O)(=O)N2CCCCC2)cc1)Nc1cccc2ccccc12 | 6% | -2.8% | 1% | -19% | 5% | -3% | -19% | -5% |
| Cc1ccc(N2C(=O)CSC23C(=O)N(CC(=O)Nc2ccc(C)cc2C)c2ccccc23)cc1 (stereo not drawn) | · | -4.1% | · | -26% | -3%[46.1 µM] | · | -5% | · |
| COc1ccc(C2(c3ccc(OC)cc3)NC(=O)N(CC(=O)Nc3cc(C)ccc3OC)C2=O)cc1 | 10% | · | -14% | · | ? | ? | 12% | 5% |
| COc1ccccc1NC(=O)C(=O)NCc1ccncc1 | -4% | 0.1% | -2% | -3% | 15% | 16%[46.1 µM] | 5% | 5% |
| CNCc1ccccc1Sc1cccc2ccccc12 | -17% | -6.3% | -12% | -13% | ? | ? | 0% | 1% |
| COc1ccc(C(=O)COC(=O)c2cnc(C)cn2)c(OC)c1 | · | · | 2% | · | 15% | 0%[46.1 µM] | -11% | -2% |
| CCC(C)NC(=O)C(=O)NCc1ccncc1 (stereo not drawn) | 12% | 2.9% | 4% | -9% | 4% | -3% | · | 2% |
| Cc1nc(N2CCOCC2)[nH]c(=O)c1C | · | · | 11% | · | 12%[46.1 µM] | 3%[46.1 µM] | 2% | 2% |
| Cc1ccc2nc(NC(=O)CN3C(=O)NC4(CCCC4)C3=O)sc2c1 | · | · | 2% | · | 1% | -3% | 26% | -6% |
| CCOC(=O)c1c(C)oc2c1cc(O)c1ccccc12 | -6% | 2.0% | 8% | ? | 11% | -22% | 43%[activator] | 3% |
| O=C(N/N=C\c1cccnc1)C1c2ccccc2Oc2ccccc21 | · | · | 2% | · | 12% | 0%[46.1 µM] | -24% | -4% |
| CCOc1ccc(/C=C2\SC(=S)N(CCCC(=O)NCCCN3CCOCC3)C2=O)cc1 | -6% | · | -12% | · | ? | ? | 11µM* | 1% |
| Cc1ccc(-c2nc(SCCOc3ccccc3C)n3[nH]c(=O)cc3n2)cc1 | · | 4.3% | · | -10% | -3%[46.1 µM] | · | -12% | · |
| O=C(c1cc(S(=O)(=O)N2CCOCC2)ccc1F)N(CCc1ccccc1)Cc1ccccc1 | · | · | -1% | · | ? | ? | 0% | 7% |
| CC(=O)c1cccc(NC(=O)c2ccccc2N(C)S(=O)(=O)c2ccc(C)cc2)c1 | 0% | · | -3% | · | ? | 3% | -17% | 1% |

5 of these compounds in another layout.
Order of results: NS1 function inh, Cruzain inh Det, RE007 growth inh, Cruzain inh noDet, LASV entry inh, Marburg entry inh, StopGo reporter, SARS PLP yeast
CCOc1ccc(/C=C2\SC(=S)N(CCCC(=O)NCCCN3CCOCC3)C2=O)cc1
    -6%, ·, -12%, ·, ?, ?, 11µM*, 1%
CNCc1ccccc1Sc1cccc2ccccc12
    -17%, -6.3%, -12%, -13%, ?, ?, 0%, 1%
CCC(C)NC(=O)C(=O)NCc1ccncc1 (stereo not drawn)
    12%, 2.9%, 4%, -9%, 4%, -3%, ·, 2%
CCN(C1CCS(=O)(=O)C1)S(=O)(=O)c1ccc(Cl)s1 (stereo not drawn)
    ·, ·, 8%, ·, 6%[46.1 µM], -5%, -15%, 3%
Cc1ccc2nc(NC(=O)CN3C(=O)NC4(CCCC4)C3=O)sc2c1
    ·, ·, 2%, ·, 1%, -3%, 26%, -6%

Continued.
| SMILES | NS1 function inh | Cruzain inh Det | RE007 growth inh | Cruzain inh noDet | LASV entry inh | Marburg entry inh | StopGo reporter | SARS PLP yeast |
| --- | --- | --- | --- | --- | --- | --- | --- | --- |
| CC(NC(=O)CCNC(=O)c1ccco1)c1ccccc1 (stereo not drawn) | · | · | 1% | · | 9% | -2%[46.1 µM] | -7% | 2% |
| Cc1ccccc1CC(=O)Nc1cccnc1 | 0% | · | -10% | · | 0% | 0% | -11% | 3% |
| Cc1ccc(C(=O)CSc2nnc(-c3ccncc3)n2C)cc1 | · | · | 1% | · | 4% | 0%[46.1 µM] | -11% | 1% |
| Cc1cnc(C(=O)OCC(=O)NC2CCCCC2)cn1 | -3% | 2.5% | 3% | -7% | -3% | -1%[46.1 µM] | -10% | -2% |
| CCCCOCP(=O)(CC)COCCCC | 4% | 3.9% | 4% | -4% | 11% | 20% | 3% | -21% |
| COCCCNC(=O)C1CC(=O)N(Cc2ccc(OC)cc2)C1 (stereo not drawn) | -4% | 5.6% | -9% | 1% | -17% | 1% | · | 0% |
| Cc1cccc(NC(=O)COC(=O)C(NC(=O)c2cccc(S(=O)(=O)N3CCOCC3)c2)C(C)C)c1 (stereo not drawn) | · | · | 7% | · | 19% | 1% | 7% | · |
| CC(C)(C)NC(=O)c1ccc(COc2ccc(Cl)cc2Cl)o1 | -11% | · | -16% | · | ? | ? | ? | -5% |

From PubChem
